Screening results deposited in PubChem by National Center for Advancing Translational Sciences (NCATS).
Rango-impB inh: qHTS Assay for Inhibitors of Rango (Ran-regulated importin-beta cargo) - Importin beta complex formation; Importin subunit beta-1 (Homo sapiens), Q14974; Rango CFP/YFP FRET sensor + importin beta, 45 min; Potency, µM (series often up to 92.2 µM), without a hit: at the highest dose inhibition of complex formation; 340,000 tested, 0.031% active; active = rising FRET ratio curve, often small or poorly fitted; inconclusive = mostly compound fluorescence or quenching in the first reads; inactive = flat curves in all reads;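 also: potency is read from the fitted curve at half-maximal effect; 0% = DMSO wells and 100% = buffer wells lacking importin beta; nearly all actives have a fitted effect of over 15% in size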
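FRET biosensor (snurportin 1 IBB flanked by EYFP and cerulean), 50 nM, with compound 5 min, then 0.125 microM importin beta in PBS, 1 mM DTT, 0.02% Tween-20, 0.1% BSA. CFP/YFP ratio read after 45 min at room temperature; pre-read flags interference.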
Rango release inh: qHTS Assay for Inhibitors of RanGTP induced Rango (Ran-regulated importin-beta cargo) - Importin beta complex dissociation. Biochemical FRET Rango-importin beta, RanGTP-induced dissociation. Potency, µM (titrated, usually from 46.1 µM), inactives show top-dose activity change, negative = inhibition. 340,000 tested, 0.071% active. Snurportin-1 (Homo sapiens) + GTP-binding nuclear protein Ran (Homo sapiens) + Importin …; active means falling FRET ratio curve, often poorly fitted, with flat reads before Ran was added; inconclusive means other falling curves, or compound fluorescence or quenching; inactive means flat or rising ratio curve;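 also: potency is read from the fitted curve at half-maximal effect; % of control where 0% means no effect; nearly all actives have a fitted effect of over 45% in size; -100% = wells without RanGTP and RCC1; the record marks most hits as doubtful in a second field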
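Rango FRET biosensor (snurportin-1 IBB flanked by N-terminal EYFP and C-terminal CFP10) at 0.1 uM, with 0.25 uM importin beta in PBS, 1mM DTT, 0.02% Tween-20, 0.1% BSA. 0.6 uM Ran, 2mM GTP and 0.2 uM RCC1 were then added for 45 min at room temperature. Inhibition read as loss of FRET rise.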
GLA inh pH 4.5: qHTS Assay for Inhibitors of Human alpha-Galactosidase at pH 4.5 | purified enzyme, 4-MU-alpha-Gal fluorescence, pH 4.5 | activity change, negative = inhibition, % at 105 µM | Alpha-galactosidase A (Homo sapiens), P06280 | 230,000 tested, under 10 active; inconclusive = small, poorly fitted or top-dose-only inhibition, or a rising curve; inactive = flat fitted curve, though single readings scatter; no compound was filed as active;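 also: 0% = full activity with enzyme and -100% = basal without enzyme; dose as in the result columns while the protocol names 77 µM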
Target sequence (P06280 whole entry, looked up): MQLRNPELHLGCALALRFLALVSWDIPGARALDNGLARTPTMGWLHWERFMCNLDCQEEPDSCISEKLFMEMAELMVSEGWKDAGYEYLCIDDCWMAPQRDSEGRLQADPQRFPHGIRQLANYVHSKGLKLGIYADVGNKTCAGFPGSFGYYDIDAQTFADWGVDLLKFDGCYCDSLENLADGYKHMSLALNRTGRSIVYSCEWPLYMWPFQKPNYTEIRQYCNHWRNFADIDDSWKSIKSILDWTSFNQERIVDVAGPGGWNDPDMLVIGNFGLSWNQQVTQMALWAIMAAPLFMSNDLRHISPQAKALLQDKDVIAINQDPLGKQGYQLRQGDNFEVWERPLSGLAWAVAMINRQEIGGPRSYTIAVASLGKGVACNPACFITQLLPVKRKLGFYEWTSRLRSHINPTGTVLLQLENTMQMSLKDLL
miR-21 reporter: qHTS Assay for Modulators of miRNAs and/orActivators of miR-21 | HeLa miR-21 FLuc reporter, luciferase, 48 h | Potency, µM (top dose mostly 38.3 µM), for the others: top-dose reporter change, positive = more light | 340,000 tested, under 10 active; active = well fitted rising curve with a large enough effect; inconclusive = small, poorly fitted or top-dose-only effect; inactive = no such curve, though single readings can be large or run the other way;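 also: % of control where 0% means no effect; miR-21 action dims this reporter so a rising signal means less miR-21 action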
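HeLa cells stably expressing CMV-driven firefly luciferase with a downstream miR-21 binding sequence, endogenously expressing miR-21, were treated with titrations (up to about 40uM final) for 48 hours at 37 degree Celsius. Luciferase luminescence was read after lysis.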
Starred values were filed as active, the others as inactive; ? = inconclusive; · = not tested or not shown; [ ] = dose if it differs, or a comment.

Rango-impB inh	Rango release inh	miR-21 reporter	GLA inh pH 4.5	molecule
1.9%	17.4%	-39.9%	-17.3	COc1ccc(NC(=O)c2ccc(Oc3ncccn3)cc2)cc1
-3.3%	1.0%	-6.8%	0.1	CCCCC(CC)C1OCC(C[N+]2(C)CCOCC2)O1 (stereo not given)
0.5%	-0.3%	-2.1%	0.4	CC(C)C1CC(CCN2CCCCC2)(c2ccccc2)CCO1 (stereo not given)
-0.1%	4.8%	1.5%	5.4	CCN(Cc1ccncc1)Cc1cn[nH]c1-c1cc(OC)c(OC)c(OC)c1
0.6%	-11.3%	-10.5%	-0.8	Cc1cc(N(C)C)c(C#N)c(N2CCOCC2)n1
-1.3%	-7.1%	-27.6%	0.3	CCN1CCN(Cc2ccccc2NC(=O)Nc2ccc(C)cc2)CC1
-0.3%	-17.9%	-0.1%	-6.5	Cc1cc(NC(=O)CSc2nccn2C)n(-c2ccccc2)n1
-0.9%	-0.4%	-5.9%	4.4	N#CCC(=O)Nc1ncn(Cc2ccccc2Cl)n1
-1.0%	0.9%	1.2%	·	Cc1ccc(NC(=O)CS(=O)CC(=O)N2CCN(c3ccccc3)CC2)cc1 (stereo not given)
-0.7%	-14.3%	·	·	CCN1CCN(S(=O)(=O)c2ccc(Cl)c(C(=O)Nc3ccccc3N3CCCCC3)c2)CC1
2.2%	-2.7%	-9.6%	·	COc1ccc(C(=O)NCCc2c[nH]c3ccc(OC)cc23)cc1
-2.0%	-18.8%	-2.1%	·	NC(=O)CC(CC(=O)OCc1ccccc1)c1ccccc1 (stereo not given)
?	-24.5%	-11.6%	-5.3	COc1ccc(-c2cc3ccccc3n2CC(O)Cn2nc(C)cc2C)cc1 (stereo not given)
3.7%	-11.5%	-26.6%	-4.4	O=C(/C=C\NCC(=O)c1ccccc1)c1ccc2ccccc2c1
-0.1%	-7.7%	-2.9%	-2.8	O=C(N/N=C/c1ccco1)c1ccc2nc[nH]c2c1
?	-12.3%	-9.3%	?	COc1cccc(C2C(C#N)=C(C)NC3=C2C(=O)CC(C)(C)C3)c1 (stereo not given)
0.4%	5.1%	-1.1%	·	O=C(NCC1CCCO1)/C(=C\c1ccccc1F)NC(=O)c1ccccc1 (stereo not given)
-0.3%	0.0%	-9.1%	-2.3	O=c1c2ccccc2[nH]c(=S)n1CCCN1CCOCC1
-2.8%	-9.0%	-23.9%	·	Cc1cc(C)cc(NC(=O)CSc2nccn2Cc2ccco2)c1
-0.6%	-4.8%	·	·	O=C(NNC(=O)c1cc(Cl)nc2ccccc12)c1ccccc1F

Next section
Rango-impB inh	Rango release inh	miR-21 reporter	GLA inh pH 4.5	molecule
-0.5%	-13.7%	-47.7%	-5.4	CCCC(=O)Nc1ccc(NC(=O)c2cccs2)cn1
?	?	-0.7%	·	Cc1ccccc1NS(=O)(=O)c1ccc2c3c(cccc13)C(=O)N2C
2.7%	8.8%	6.5%	-2.1	CC(C)c1ccc(/C=N/NC(=O)c2ccccn2)cc1
-1.3%	-1.3%	7.1%	·	CCOc1ccccc1NS(=O)(=O)c1ccc2c(c1)NC(=O)CCS2
5.6%	-2.1%	-3.3%	·	CC1CCC(N2CCN(S(=O)(=O)Cc3ccccc3)CC2)CC1 (stereo not given)
0.5%	1.8%	-16.5%	4.6	O=C(COc1ccc(Cl)cc1Cl)N1CCN(c2ccccn2)CC1
2.2%	-4.6%	-6.7%	-3.1	C=C(C)Cn1c(N2CCN(CC)CC2)nc2c1c(=O)[nH]c(=O)n2C
6.3%	7.2%	-3.0%	4.0[21.1 µM]	CCOc1ccc(CCNC(=O)C2CCCN2C(=O)OCc2ccccc2)cc1OCC (stereo not given)
?	-25.9%	-3.9%	-2.0	COc1ccc(C(=O)CSc2nc(C(C)(C)C)nc3ccccc23)cc1
1.5%	15.8%	·	·	C[C@H](O)[C@@H]1C(=O)N2CCc3ccc(-c4cccc(F)c4)cc3[C@@H]2C[C@@H]1N(C)C(=O)C(C)(C)C
0.6%	-10.4%	21.4%	-11.4	COc1ccc(CNn2c(-c3cccs3)nc3ccccc3c2=O)cc1OC
?	-25.0%	-26.7%	-12.5	O=C1CCCC/C1=C\Nc1ccc(C(=O)O)c(O)c1
?	?	-72.7%	3.3	O=c1cc(-c2ccc(O)cc2)oc2ccccc12
1.8%	-5.1%	-1.1%	-4.8	COc1ccc(CCNC(=O)Cn2cccc2C(=O)c2ccccc2)cc1OC
0.0%	15.4%	2.4%	·	OCC[C@@H]1C[C@H](O)[C@@H](O)[C@]2(CCc3ccccc3CO2)O1
-1.5%	-15.8%	-18.3%	4.7	Cc1nnc(SCc2nc3ccccc3[nH]2)s1
1.8%	3.9%	-7.0%	-2.5	CC(=O)N1CCc2cc(Br)cc(S(=O)(=O)N3CCN(C(=O)c4ccco4)CC3)c21
-0.5%	8.3%	·	·	CCC1CCCCN1C(=O)CSc1n[nH]c(N)n1 (stereo not given)
-2.5%	3.5%	-7.5%	-0.8	CC/C(=N\NC(=O)CNC(=O)/C=C/c1ccco1)c1ccccc1
3.8%	-1.0%	-1.2%	3.8	CCOC(=O)C(CCc1nnc(N)s1)C(=O)OCC

Arranged by molar mass (highest first): part of the list above.
Rango-impB inh	Rango release inh	miR-21 reporter	GLA inh pH 4.5	molecule
1.5%	15.8%	·	·	C[C@H](O)[C@@H]1C(=O)N2CCc3ccc(-c4cccc(F)c4)cc3[C@@H]2C[C@@H]1N(C)C(=O)C(C)(C)C
2.2%	-4.6%	-6.7%	-3.1	C=C(C)Cn1c(N2CCN(CC)CC2)nc2c1c(=O)[nH]c(=O)n2C
?	-25.0%	-26.7%	-12.5	O=C1CCCC/C1=C\Nc1ccc(C(=O)O)c(O)c1

Additional structures:
Rango-impB inh	Rango release inh	miR-21 reporter	GLA inh pH 4.5	molecule
-2.3%	15.4%	·	·	Cc1ccc(CSCC(=O)Nc2ccc(N3CCOCC3)cc2N2CCOCC2)cc1
-0.5%	-8.7%	-7.7%	·	COc1ccc(Cl)cc1NS(=O)(=O)N1CCOCC1
3.7%	8.7%	-5.7%	1.6	Cc1cccc(S(=O)(=O)Nc2cccc(-c3cn4ccsc4n3)c2)c1
-1.1%	-4.9%	0.1%	1.9	COc1ccc(N2CCN(CCCNC(=O)C3CCN(S(=O)(=O)N4CCOCC4)CC3)CC2)cc1
0.4%	23.0%	·	·	CC1O[C@@H](O[C@H](C)CC/C=C/C(=O)O)C(O)C[C@H]1O (stereo not given in full)
8.6%	21.9%	-5.4%	8.0	O=C(OCc1ccccc1)Oc1cncc(C(=O)O)c1
-0.1%	0.2%	-1.7%	-4.9	Nc1nonc1/C(=N/O)N1CCN(CCO)CC1
-3.9%	-6.2%	-12.3%	0.7	CSc1nsc(SCCN2C(=O)c3ccccc3C2=O)n1
-3.4%	0.2%	·	·	COc1ccc(S(=O)(=O)N2CCOCC2)cc1C(=O)N(C)Cc1ccco1
2.7%	-13.1%	-0.2%	-2.6	CCc1nc2sccc2c(=O)n1N
·	·	-2.3%	0.1	Cc1ccccc1OCC(=O)NCC(=O)N/N=C/c1cccc([N+](=O)[O-])c1
-0.3%	-17.6%	·	·	CCCN1CCCC[C@H]1C(=O)Nc1c(C)cccc1C
-6.0%	-5.4%	-20.4%	·	COc1cccc(NC(=O)c2sc(Cl)nc2C)c1
0.0%	-2.3%	-21.9%	-4.6	O=C(Nc1ccc(Cl)cc1)N1CCN(c2ccccc2)CC1
0.5%	9.2%	3.3%	·	O=C(CCCCC(=O)NC1CCCC1)NC1CCCC1
-0.4%	0.2%	·	·	O=C(CNS(=O)(=O)c1c(F)cccc1F)NC1CCCc2ccccc21 (stereo not given)
-1.5%	0.0%	1.2%	4.4	CCC(Sc1nc(N)c(NC(=O)c2ccc(OC)c(OC)c2)c(=O)[nH]1)C(=O)OC (stereo not given)
1.2%	8.2%	-17.7%	-4.2	O=C1CN(C(=O)/C=C/c2ccc(Cl)cc2)c2ccccc2N1
?	?	5.1%	·	CN1C(=O)c2cccc3c(N)ccc(c23)C1=O
2.7%	2.4%	·	·	CC(Oc1ccc(Br)cc1)C(=O)NCC(c1cccs1)N1CCOCC1 (stereo not given)

New compounds follow
Rango-impB inh	Rango release inh	miR-21 reporter	GLA inh pH 4.5	molecule
0.8%	-4.1%	-18.1%	3.7	CC(=O)Nc1ccc(S(=O)(=O)Nc2nc(-c3ccc(C(C)(C)C)cc3)cs2)cc1
-2.8%	-7.0%	30.0%	-19.4	O=[N+]([O-])c1ccc(C(O)CN=Cc2ccc(O)cc2O)cc1 (stereo not given)
1.5%	7.8%	2.1%	3.2	CCC1CCCCN1C(=O)Nc1cc(Cl)ccc1OC (stereo not given)
-0.6%	21.2%	6.8%	·	O=S(=O)(c1ccccc1)N1CCC(n2cnc3ccccc32)CC1
-3.0%	2.2%	-53.4%	-10.4	O=C(c1ccc(F)cc1)n1c(=S)nc2ccccn21
-2.8%	-24.4%	-4.2%	-16.9	CN1C(=O)N(S(=O)(=O)c2ccc(F)c(F)c2F)C(=O)C1(C)C
-4.6%	-14.8%	-5.5%	·	O=C(NCc1cccc(Cl)c1)c1ccc(N2CC3CC(C2)c2cccc(=O)n2C3)c(NC(=O)c2cccnc2)c1 (stereo not given)
-1.3%	7.6%	0.1%	7.1	Cc1onc(C(N)=O)c1C(=O)Nc1ncc(C(F)(F)F)cc1Cl
-0.5%	7.5%	-2.3%	-4.8	FC(F)(F)c1ccc(CSc2ccccn2)cc1
-0.4%	-12.6%	13.7%	0.2	CCCCC(c1nnnn1Cc1ccco1)N1CCN(c2nc3ccccc3s2)CC1 (stereo not given)
-1.5%	20.9%	-4.9%	-5.5[21.1 µM]	CN(CC(=O)NC1CCCCCCC1)S(=O)(=O)c1cnc[nH]1
5.2%	1.3%	·	·	COc1cccc(NC(=O)C2CCCC2)c1
0.0%	-11.9%	-26.9%	2.9	COc1ccc(C(=O)Nc2nc3ccccc3[nH]2)cc1S(=O)(=O)N1CCCC1
-0.9%	-9.6%	4.0%	·	Cc1ccc(N(C(=O)c2ccc(S(=O)(=O)N3CCCC3)cc2)C2C=CS(=O)(=O)C2)cc1 (stereo not given)
?	4.6%	·	·	CCN1CCN(S(=O)(=O)c2ccc(Cl)c(C(=O)Nc3ccccc3N3CCOCC3)c2)CC1
-1.6%	-3.9%	-3.1%	3.7	NS(=O)(=O)c1ccc(NC(=S)NCc2ccc(F)cc2)cc1
0.7%	-6.4%	1.2%	·	Cc1ccc(C(C(=O)NC2CCCC2)N(C(=O)c2csnn2)C2CC2)cc1 (stereo not given)
0.4%	-10.0%	0.8%	-0.8	Cc1ccccc1N1CC(=O)Nc2c(oc3nc(-c4ccccc4)cc(C)c23)C1=O
0.7%	-4.7%	0.7%	-1.4	Cc1ccc(OCC(=O)N(C)CC(=O)Nc2ccc(F)cc2)c([N+](=O)[O-])n1
-0.8%	7.1%	-0.4%	0.4	CC(=O)c1cccc(CN2CCN(Cc3ccc(C)cc3)C(CCO)C2)c1 (stereo not given)
1.4%	0.1%	0.2%	-16.7	O=C(NCc1ccc(OC(F)(F)F)cc1)C1CC(c2ccccc2[N+](=O)[O-])=NO1 (stereo not given)
-1.2%	-8.0%	-6.5%	6.7	CCN(CC(=O)Nc1ccc(OC)c(Cl)c1)CC(=O)NC(C)C
1.9%	4.8%	26.3%	-14.7	CN1CC(c2ccccc2Cl)C2(COc3ccccc3C2=O)C12C(=O)Nc1ccccc12 (stereo not given)

Record cards, from the list above:
Profile of `FC(F)(F)c1ccc(CSc2ccccn2)cc1` → Rango-impB inh: -0.5%; Rango release inh: 7.5%; miR-21 reporter: -2.3%; GLA inh pH 4.5: -4.8
Profile of `CC(=O)Nc1ccc(S(=O)(=O)Nc2nc(-c3ccc(C(C)(C)C)cc3)cs2)cc1` → Rango-impB inh: 0.8%; Rango release inh: -4.1%; miR-21 reporter: -18.1%; GLA inh pH 4.5: 3.7

Not all compounds are listed. The share of hits here may be higher or lower than overall.
